Screens from PubChem BioAssay.
Bead autofluor – counter-screen for toxin protease inhibitors: compound fluorescence | compound autofluorescence counterscreen, microsphere flow cytometry; active compounds read high | fluorescence intensity (test concentration not listed) | actives 3.1% (n = 360,000) | AID 624483;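 active means at least 3 SD above the mean of all compounds, about 16000 in these data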;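 further: 100 nL of 1 mM stock went into each well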
* marks the source's active call; other numbers are inactive results. The list is partial; count on the stated rates, not on these rows.

SMILES | Bead autofluor
CCc1ccc(CN(C)C(=O)c2cc(COc3cncc(Cl)c3)on2)cc1 | 3925
COCCCN1C(=O)C(CC(=O)NC2CC2)CC(C(=O)N2CCOCC2)=C1C (centres undefined) | 5674
COCCNC(=O)C1(C)CCCN(Cc2ccc(Cl)c(Cl)c2)C1 (centres undefined) | 2940
CCCCOc1ccc(S(=O)(=O)NC(=O)C2(C)CCN2C(=O)c2cccc(F)c2)cc1 (centres undefined) | 3938
COc1cc(C=C(OC(C)=O)c2ccc3c(c2)OCO3)cc(OC)c1OC | 6373
COc1ccc(C(=O)Nc2cc(S(=O)(=O)N3CCCCC3)ccc2C)cc1 | 3062
CCCS(=O)(=O)NC(=O)C1(C)CCN(C(=O)c2c(F)cccc2F)C1 (centres undefined) | 3678
O=C(CC[C@H]1O[C@@H](n2cnc3c(NC(=O)c4ccccc4)ncnc32)[C@H](O)[C@@H]1O)NCC1CCN(Cc2ccccc2)CC1 | 5731
COc1cccc(Nc2nc(C(N)Cc3ccc(F)cc3)cs2)n1 (centres undefined) | 4217
COc1ccc(C(c2nnnn2Cc2ccccc2)N2CCN(C/C=C/c3ccccc3)CC2)cc1 (centres undefined) | 6090
CNC(=O)C[C@@H]1C(=O)N(C2CCCCC2)CC1(C)C | 3754
CC1=C(C(=O)N2CCOCC2)CC(CC(=O)NCC2CCCCC2)C(=O)N1Cc1ccc(F)cc1 (centres undefined) | 3782
CCN1C(=O)[C@H]2[C@@H](c3ccc(OC)cc3)N[C@]3(CCCN(Cc4ccc(Cl)cc4)C3=O)[C@H]2C1=O | 3110
Cc1cc2nc(CN(C)C(=O)C3CCC(=O)N(C4CCCC4)C3)[nH]c2cc1C (centres undefined) | 3562
CCCNC(=O)C1(C)CCN(C(=O)C(c2ccccc2)c2ccccc2)C1 (centres undefined) | 3840

Quoted at random: 2 entries already listed
SMILES | Bead autofluor
CCCS(=O)(=O)NC(=O)C1(C)CCN(C(=O)c2c(F)cccc2F)C1 (centres undefined) | 3678
COc1cccc(Nc2nc(C(N)Cc3ccc(F)cc3)cs2)n1 (centres undefined) | 4217

More entries:
SMILES | Bead autofluor
CCCNC(=O)C1(C)CCCN(C(=O)c2ccc3ccccc3c2)C1 (centres undefined) | 3654
COCCNC(=O)C1CCCN(Cc2ccc(-c3ccccc3)cc2)CC1 (centres undefined) | 3716
O=C(Nc1cccc(Cl)c1)c1csc(COCCO)n1 | 3056
CC(C)C1Cc2[nH][nH]c(=O)c2C(c2ccc(Cl)cc2)O1 (centres undefined) | 5702
OC(c1cccc(Cl)c1)c1nc(/C=C/c2ccccc2)cs1 (centres undefined) | 3328
CCOC(=O)[C@]12CCCC=C1N(Cc1ccc(Cl)cc1Cl)C(=O)[C@H](CC(=O)N1CCSCC1)C2 | 5683
CSCCC(c1nnnn1C1CCCC1)N1CCC2(CC1)C(=O)NCN2c1ccccc1 (centres undefined) | 5180
Cc1noc(C)c1-c1ccc(C(=O)Nc2ccc(C(C)C)cc2)c2occc12 | 4538
CCc1nc2ccc(C(=O)NCCN3CCNC3=O)cn2c1N(CCC(C)C)CCN(C)C | 4085
CCc1nc2ccc(C(=O)N3CCN(C(C)=O)CC3)cn2c1N(C)C(=O)c1cccc(OC)c1 | 3453
CC(OC(=O)c1cccc(S(=O)(=O)N2CCOCC2)c1)C(=O)NCC1CCCCC1 (centres undefined) | 3401
CN(C)[C@H]1CCN([C@H]2CS(=O)(=O)N[C@@H]2COCc2ccccc2)C1 | 4247
COc1ccc(OC)c(C(=O)CCCCC(=O)c2cc(OC)ccc2OC)c1 | 4217
COc1ccc(-c2ccc(CN3C(CC(C)C)C(=O)N(Cc4cn(CC5CCCCC5)nn4)CCS3(=O)=O)cc2)cn1 (centres undefined) | 3866
COC(=O)[C@H]1C[C@H](OC(=O)NCC2CCCCC2)[C@@]2(O)CN(S(=O)(=O)c3ccc(C)cc3)CC2[C@H]1C(=O)OC (some centres undefined) | 2765
COc1ccccc1NC(=O)N(C)C[C@H]1OCc2cnnn2CCCC(=O)N([C@H](C)CO)C[C@@H]1C | 3740
Cc1c(C(=O)NCc2ccc(Cl)c(Cl)c2)sc(=O)n1Cc1ccccc1F | 5330
CC1(Cc2ccccc2C#N)C(=O)Nc2ccc(-c3ccccc3)cc21 (centres undefined) | 3490
Cc1ccc2c(=O)n3c(nc2c1)C(Cc1ccccc1)NC(=O)c1cccnc1-3 (centres undefined) | 3316
O=C(c1[nH]c(C(F)(F)F)nc1-c1ccccc1)N1CCN(c2cccc(C(F)(F)F)n2)CC1 | 6024
O=C(Nc1ccc(S(=O)(=O)Nc2ncccn2)cc1)c1ccc(Br)cc1 | 3621
OC[C@H]1O[C@@H](c2nc(-c3ccc4c(c3)CCO4)no2)[C@H](O)[C@@H](O)[C@H]1O | 3952
Cc1cccc(NC(=O)C(C)Sc2ncnc3sccc23)c1 (centres undefined) | 4263
O=C(N[C@H](CO)c1ccccc1)[C@H]1O[C@@H](n2ccc(=O)[nH]c2=O)[C@H](O)[C@@H]1O | 5894
CC(C)Nc1ncnc2c1ncn2[C@H]1CN(Cc2ccc(F)cc2)C[C@@H](CO)O1 | 3627
CC1(C)CC(Cc2cccc(C(F)(F)F)c2)N(C(=O)OC(C)(C)C)C1 (centres undefined) | 3480
CCCNC(=O)C1(C)CCN(Cc2cc(C(F)(F)F)ccc2Cl)C1 (centres undefined) | 3623
COc1ccc(CNC(=O)Nc2nc(C(N)Cc3ccc(F)cc3)cs2)cc1 (centres undefined) | 3837
O=C(CSc1nnc(-c2cccnc2)o1)Nc1ccc(F)cc1 | 3861
CCOc1ccc(CCN2C(=S)N([C@@H](CC(C)C)CN3CCC[C@@H]3CN3C(=S)NC[C@@H]3Cc3ccc(O)cc3)C[C@@H]2CC(C)C)cc1 | 6058

Quoted from the listing:
For Bead autofluor, `O=C(c1[nH]c(C(F)(F)F)nc1-c1ccccc1)N1CCN(c2cccc(C(F)(F)F)n2)CC1` has the entry 6024
For Bead autofluor, `OC[C@H]1O[C@@H](c2nc(-c3ccc4c(c3)CCO4)no2)[C@H](O)[C@@H](O)[C@H]1O` has the entry 3952
For Bead autofluor, `O=C(CSc1nnc(-c2cccnc2)o1)Nc1ccc(F)cc1` has the entry 3861
For Bead autofluor, `CCOc1ccc(CCN2C(=S)N([C@@H](CC(C)C)CN3CCC[C@@H]3CN3C(=S)NC[C@@H]3Cc3ccc(O)cc3)C[C@@H]2CC(C)C)cc1` has the entry 6058
For Bead autofluor, `O=C(N[C@H](CO)c1ccccc1)[C@H]1O[C@@H](n2ccc(=O)[nH]c2=O)[C@H](O)[C@@H]1O` has the entry 5894
For Bead autofluor, `Cc1ccc2c(=O)n3c(nc2c1)C(Cc1ccccc1)NC(=O)c1cccnc1-3` (centres undefined) has the entry 3316
For Bead autofluor, `COc1ccc(CNC(=O)Nc2nc(C(N)Cc3ccc(F)cc3)cs2)cc1` (centres undefined) has the entry 3837

The main list resumes, repeating the 5 entries before the break.
SMILES | Bead autofluor
CC1(C)CC(Cc2cccc(C(F)(F)F)c2)N(C(=O)OC(C)(C)C)C1 (centres undefined) | 3480
CCCNC(=O)C1(C)CCN(Cc2cc(C(F)(F)F)ccc2Cl)C1 (centres undefined) | 3623
COc1ccc(CNC(=O)Nc2nc(C(N)Cc3ccc(F)cc3)cs2)cc1 (centres undefined) | 3837
O=C(CSc1nnc(-c2cccnc2)o1)Nc1ccc(F)cc1 | 3861
CCOc1ccc(CCN2C(=S)N([C@@H](CC(C)C)CN3CCC[C@@H]3CN3C(=S)NC[C@@H]3Cc3ccc(O)cc3)C[C@@H]2CC(C)C)cc1 | 6058
CC(C)OC(=O)N(C)C[C@H]1OCc2cnnn2CCCC(=O)N([C@@H](C)CO)C[C@H]1C | 3146
Cc1ccc(OC2CCN(C(=O)[C@H]3O[C@@H](n4cnc5c(N)ncnc54)[C@H](O)[C@@H]3O)CC2)cc1 | 5767
CC(C)(C)n1nnnc1C(c1cc2ccccc2o1)N1CCN(C(=O)OCc2ccccc2)CC1 (centres undefined) | 6266
COc1ccc([C@H]2C[C@@H](n3cc(COC(=O)c4ccccc4)nn3)[C@H](O)CN2C(=O)c2cccs2)cc1 | 3765
O=C(c1ccc2c(c1)OCCO2)N1CCN(c2ccc(C(F)(F)F)cn2)CC1 | 3636
CCCC[C@@H]1CC2=C(C(=O)OC(C)(C)O2)[C@@H](c2ccc(F)cc2)O1 | 6188
COc1ccccc1C(NC(=O)C1CCN(CCc2ccc(Br)cc2)CC1)c1ccccn1 (centres undefined) | 3184
CCCNC(=O)C1(C)CCCN(Cc2ccc(-c3ccccc3)cc2)C1 (centres undefined) | 3944
CC1(C(=O)Nc2ccc3c(c2)OCCO3)CCN1Cc1ccccc1OC(F)F (centres undefined) | 3547
CC(=O)Nc1cccc(-c2cc3nc(NCc4cccnc4)n(C)c(=O)c3s2)c1 | 3713
CC(C)CC1C(=O)N(Cc2cn(CCC3OCCCO3)nn2)CCS(=O)(=O)N1Cc1ccc(-c2cccc(N(C)C)c2)cc1 (centres undefined) | 3898
COCCN1C[C@@H](CO)O[C@@H](n2cnc3c(NCc4cc(OC)c(OC)c(OC)c4)ncnc32)C1 | 3730
COc1ccc(S(=O)(=O)N2CCOCC2)cc1NC(=O)CN1C(=O)NC2(CCC(C)CC2)C1=O (centres undefined) | 2921
N#Cc1cccnc1N1CCN(C(c2ccnc3ccccc23)c2nnnn2-c2ccc3c(c2)OCCO3)CC1 (centres undefined) | 5315
CN(CC(=O)Nc1ccc(Cl)cc1)CC(=O)N1CCc2ccccc21 | 3818
COc1ccc(-c2cc3nc(NCCN4CCCC4)n(C)c(=O)c3s2)cc1OC | 3973
CCc1nc2ccc(C(=O)N3CCN(C(=O)c4ccco4)CC3)cn2c1N(C)Cc1ccc(OC)cc1 | 3818
Cc1cccc(CN2CCN(C3CN(C4CCCCC4)S(=O)(=O)C3)CC2)c1 (centres undefined) | 4189
O=C(Nc1ccc(Cl)cc1F)c1ccc2c(c1)C(=O)N(Cc1ccncc1)C2=O | 3710
CC(=O)Nc1cc(-c2cccc(C(=O)N(C)C)c2)cn2c(-c3ccccc3)cnc12 | 3902
COc1cc(OC)cc(C(=O)OCC(=O)NC2CCCCCCC2)c1 | 3030
CC(C)(C)c1ccc(S(=O)(=O)NC(=O)C2(C)CCN2C(=O)c2cccc3ccccc23)cc1 (centres undefined) | 3580
COc1ccc(NC(=O)C2Cc3c(-c4ccc5c(c4)OCO5)ccnc3O2)cc1OC (centres undefined) | 3378
CCCc1c(-c2cccc(Cl)c2)ncn1CCc1ccccc1OC | 5907
C[C@@H]1CN([C@H](C)CO)C(=O)CCCn2cc(nn2)CO[C@H]1CN(C)C(=O)Oc1ccc2ccccc2c1 | 3911
COc1cccc(C(N)c2nc(-c3cc(F)cc(F)c3)cs2)c1 (centres undefined) | 3846
COc1ccccc1-c1cnc(C(O)c2ccc(F)cc2C)[nH]1 (centres undefined) | 3727
C[C@H]1Cn2cnc(C(=O)NCc3ccc(CNC(=O)OC(C)(C)C)cc3)c2C(=O)N1 | 3605
C=CCNc1nc(NCc2ccc(NC(C)=O)cc2)c2sc(-c3ccccc3)cc2n1 | 3048
COc1ccc(S(=O)(=O)n2c(N)nc3ccccc32)cc1 | 2813

Of the compounds above, these have a furan ring, fused or not.
SMILES | Bead autofluor
Cc1noc(C)c1-c1ccc(C(=O)Nc2ccc(C(C)C)cc2)c2occc12 | 4538
CC(C)(C)n1nnnc1C(c1cc2ccccc2o1)N1CCN(C(=O)OCc2ccccc2)CC1 (centres undefined) | 6266
CCc1nc2ccc(C(=O)N3CCN(C(=O)c4ccco4)CC3)cn2c1N(C)Cc1ccc(OC)cc1 | 3818

More compounds follow:
SMILES | Bead autofluor
CC(C)C[C@H]1CNC(=O)C(=O)N1C[C@@H]1CCCN1C[C@H](CC(C)C)N1C[C@H](Cc2ccccc2)N(CCc2ccccc2)C(=O)C1=O | 4166
CC(C)c1ncc(CO)n1Cc1c(Cl)cccc1Cl | 3849
CC(C)C[C@@H](CN1CCC[C@H]1CN1C(=O)C(=O)NC[C@@H]1Cc1ccccc1)N1C[C@H](Cc2ccc(O)cc2)N(CCc2ccccc2)C(=O)C1=O | 4142
CC(C)(C)S(=O)N1Cc2cc(C(=O)NCc3ccc(Oc4ccccc4)cc3)nc(-c3cccc(-c4cc5ccccc5o4)c3)c2[C@@H]1CCO (some centres undefined) | 6202
CCc1nc2c(OCc3ccccc3C(=O)OC)cccn2c1N(C)C(=O)Nc1ccccc1OC | 2998
COc1ccccc1CNC(=O)c1cc(-c2cc(F)ccc2OC(C)C)n[nH]1 | 3570
COc1ccc2nc3n(c(=O)c2c1)-c1ncccc1C(=O)NC3CC(C)C (centres undefined) | 3825
Nc1c(C(=O)Nc2ccccc2)sc2nc(N3CCOCC3)c3c(c12)CCCC3 | 3820
Clc1cccc(CNc2ccn3nc(-c4cccc(OCc5ccccc5)c4)cc3n2)c1 | 3775
Cc1nc(N)ncc1CCC1OCCO1 | 3664
CC(O)C(NC(=O)OCc1ccccc1)C(=O)NCC(=O)NCC(=O)OCc1ccccc1 (centres undefined) | 4349
CCc1nc2ccc(C(=O)NCCOc3ccc(OC)cc3)cn2c1N(C)C(=O)C1CCCCC1 | 3521
CCCS(=O)(=O)NC(=O)C1(C)CCCN(C(=O)c2ccccc2C(F)(F)F)C1 (centres undefined) | 2932
Cc1cc2nc(-c3cccc(Cl)c3)c(Cc3cccc(Cl)c3)n2c(C)c1Br | 6102
Cc1ccsc1C(=O)N1CCC1(C)C(=O)NS(=O)(=O)c1ccccc1 (centres undefined) | 3905
CN(C)c1ccc(CNC(=O)C2(C)Cc3c(-c4cccc(C(N)=O)c4)ccnc3O2)cc1 (centres undefined) | 3872
CCCNC(=O)C1(C)CCCN(C(=O)c2cc3ccccc3s2)C1 (centres undefined) | 3439
COc1ccc(C(C)=O)cc1CN1C(=O)C(C)ON=C1c1cccc(C(F)(F)F)c1 (centres undefined) | 5431
Cc1ccccc1OC1(C)CCN(Cc2ccc(-c3ccccn3)cc2)C1 (centres undefined) | 3961
CCOC(=O)[C@]12CCCC=C1N(Cc1ccc3c(c1)OCO3)C(=O)[C@H](CC(=O)NCc1ccc(C)o1)C2 | 5694
Cc1ccc(S(=O)(=O)NC(=O)C2(C)CCN2C(=O)Cc2ccc(-c3ccccc3)cc2)nc1 (centres undefined) | 3603
Cc1cc(Cl)ccc1OCC(=O)OCC(=O)Nc1ccc(Cl)cn1 | 2962
CCOC(=O)C1=C[C@@H](C(C)(C)C)N(S(=O)(=O)c2ccc(C)cc2)[C@H]1c1ccc(Cl)c(Cl)c1 | 6054
Cc1ccc(C(O)c2ncc(-c3ccc4ccccc4c3)[nH]2)c(C)c1 (centres undefined) | 3511
